gsp agonist: agonists of gsp mutant (McCune-Albright syndrome). hit rate 0.13% among 340,000. gsp mutant cells, cAMP HTRF, 30 min; control for the full effect not named in the record. AID 624287. Potency, µM (top dose mostly 76.9 µM), without a hit: at the top dose activation (cAMP increase), hits mostly activators; active = well fitted activation curve with a large enough effect; inconclusive = small, poorly fitted or top-dose-only effect, or another doubt; inactive = no such curve, though single readings can be large or run the other way; cell line not stated here;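 further: phosphodiesterase inhibitor Ro 20-1724 added with compounds to block cAMP breakdown; potency means the concentration at half of the fitted maximal effect; nearly all actives have a fitted effect of over 60% in size; about a fifth of the inactives were tested at one dose only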
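Cells in DMEM/10% FBS with G418 were pretreated with compounds in DMSO plus […] (300 uM stock) for 30 min at 37C. cAMP was measured by HTRF (cAMP-d2 plus anti-cAMP antibody-K) after 30 min at room temperature.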
Menin MLL FP FL: menin-MLL binding inhibition, fluorescein peptide | FP activity change, % at 61.4 µM | Fluorescence polarization, fluorescein-MLL peptide displacement from menin | 290,000 tested, under 10 active; inconclusive = falling polarisation curve, or a change in total fluorescence; inactive = total fluorescence flat and polarisation flat or rising; no compound was filed as active; the % refers to the polarisation; negative = inhibition;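 further: % of control where 0% means no effect; inhibitors lower the polarisation; unlabelled MLL peptide was the positive control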
Sfp PPTase inh: inhibitors of Bacillus subtilis Sfp phosphopantetheinyl transferase | Q9F4F7 | Biochemical Sfp PPTase activity, qHTS | Potency, µM, for inactives: max response, negative = inhibition, most hits filed as inhibitors | hit rate 3.5% among 310,000 | AID 1490; active means well fitted inhibition curve with a large enough effect; inconclusive means small, poorly fitted or top-dose-only effect, or another doubt; inactive means no such curve, though single readings can be large or run the other way;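 further: the enzyme is Sfp with the accession as filed and its product quenches rhodamine fluorescence; potency means the concentration at half of the fitted maximal effect; 0% = enzyme reaction without inhibitor and -100% = no enzyme wells; top concentration of the series not given in the record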
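With Hepes-Na pH 7.6 buffer containing 10 mM MgCl2, Sfp (15 nM) modified BHQ-2-YbbR (12.5 uM) using rhodamine-CoA (5 uM). Two reads 30 minutes apart at 525/598 nm yielded each well's rate.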
D2 ag: activates the human D2 dopamine receptor; AID 624465; hit rate 0.084% among 360,000; DiscoveRx PathHunter D2 beta-arrestin, luminescence, 90 min; 100% = 57 uM dopamine signal; activation, % (concentration not given with the values); in the data active = activation above about 40%; inconclusive = about 15% to 40%; inactive = below about 15%; further: compound concentration not given in the record; the text of the record calls up to 30% inactive
Target sequence (P14416 whole entry, looked up): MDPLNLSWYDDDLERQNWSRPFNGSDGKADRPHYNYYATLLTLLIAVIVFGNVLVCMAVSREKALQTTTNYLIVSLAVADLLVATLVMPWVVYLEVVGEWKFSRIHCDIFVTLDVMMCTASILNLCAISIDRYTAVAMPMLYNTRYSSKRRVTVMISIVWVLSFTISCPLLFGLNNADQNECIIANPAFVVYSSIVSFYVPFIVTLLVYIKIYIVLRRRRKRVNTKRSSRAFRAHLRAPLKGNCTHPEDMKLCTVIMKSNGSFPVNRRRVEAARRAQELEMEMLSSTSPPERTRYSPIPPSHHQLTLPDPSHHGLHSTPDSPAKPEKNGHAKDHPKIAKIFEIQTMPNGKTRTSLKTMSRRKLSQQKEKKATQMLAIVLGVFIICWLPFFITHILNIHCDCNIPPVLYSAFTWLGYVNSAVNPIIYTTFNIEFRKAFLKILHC
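DiscoveRx PathHunter D2 beta-arrestin cells (2,100/well) attached overnight, then compound-stimulated 90 min at 37 C in HBSS/10 mM HEPES/0.1% Tween-20 buffer; beta-galactosidase complementation read by luminescence after 1 h at ambient temperature. Dopamine 57 uM final (EC100) as control.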
ClpP mod: qHTS Assay for Activators of ClpP; purified B. subtilis ClpP, FRET peptide cleavage, 20 min; Potency, µM (highest dose often 57.5 µM), inactives show at the highest dose activity change, negative = active; hit rate 1.9% among 340,000; AID 651965, 2013; active = well fitted falling curve with a large enough effect; inconclusive = small, poorly fitted or top-dose-only effect; inactive = no such curve, though single readings can be large or run the other way; further: potency means the concentration at half of the fitted maximal effect; the source files actives as falling curves though it sought activators and does not explain the sign; nearly all actives have a fitted effect of over 65% in size; many hits overshoot -100%
Target sequence (P80244 whole entry, looked up): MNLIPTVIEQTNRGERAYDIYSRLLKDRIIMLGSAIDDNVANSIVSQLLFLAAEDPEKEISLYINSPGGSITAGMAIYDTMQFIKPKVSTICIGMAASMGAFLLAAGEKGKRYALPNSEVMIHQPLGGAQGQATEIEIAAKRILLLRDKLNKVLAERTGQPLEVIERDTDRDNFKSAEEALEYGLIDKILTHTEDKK
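FRET quenching reversal measured ClpP activation: 10 microg/mL B. subtilis ClpP at pH 8 with the FRET-FV decapeptide, read at 430 nm after 320 nm excitation. The 20-min minus 0-min signal was scaled between DMSO/no-enzyme wells and ADEP (5.8 microM final).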
gsp antagonist: antagonists of gsp mutant (McCune-Albright syndrome); gsp-mutant cells, cAMP HTRF, 30 min; control for the full effect not named in the record; Potency, µM (series often up to 76.9 µM), without a hit: top-dose activity change, negative = inhibition, actives largely listed as inhibitors; hit rate 0.4% among 340,000; AID 624288; active = falling curve of any shape with a large fitted effect; inconclusive = falling curve, mostly with a smaller effect; inactive = flat or rising curve; cell line not stated here;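 further: intracellular cAMP measured with PDE inhibitor Ro 20-1724 present during compound exposure; potency means the concentration at half of the fitted maximal effect; on the % scale 0 is the no-effect control and ±100 the full control effect; nearly all actives have a fitted effect of over 65% in size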
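HTRF cAMP measurement after 30 min RT detection following 30 min, 37C compound treatment alongside […] (added as 300 uM solution) in G418-selected cells seeded at 2000/well and grown 16–24 h.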
PINK1 modulator: PINK1 expression modulation; PINK1 immunofluorescence, high-content cytometry, 24 h; hit rate 0.2% among 410,000; AID 624263; Potency, µM (doses to about 76.6 µM), without a hit: at the top dose activation (PINK1 increase), usual class: activators; active = well fitted activation curve with a large enough effect; inconclusive = small, poorly fitted or top-dose-only effect; inactive = flat fitted curve, though single readings scatter; cell line not stated here;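 further: potency means the concentration at half of the fitted maximal effect; % of control where 0% means no effect; nearly all actives have a fitted effect of over 65% in size; a mitochondrial uncoupler was the plate control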
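PINK1 protein level read as immunofluorescence by microplate cytometer in a fixed, stained stable cell line after 24 h exposure to five compound concentrations, with CCCP as control.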
Numbers without * were called inactive; ? = inconclusive; · = not tested or not shown; [ ] = dose if it differs, or a comment.

SMILES	gsp agonist	Menin MLL FP FL	Sfp PPTase inh	D2 ag	ClpP mod	gsp antagonist	PINK1 modulator
COc1ccc([C@H]2CC(=O)C=C(c3ccc(Cl)cc3C)C2)cc1	?	·	·	-2.9	-0.1%	3%	2.7%
CCCCCn1c(CNC(=O)COC)nc2ccccc21	-19%	0.7	10%	-2.0	-0.9%	-10%	-0.5%
Cc1ccsc1-c1nc(-c2ccccc2)c(-c2ccccc2)[nH]1	15%	5.1	11%	-2.4	28µM*	14%	8.5%
CCN(CC)S(=O)(=O)c1ccc2c(c1)nc(CCC(=O)OCC(=O)N1CCc3ccccc31)n2C	12%	6.2	-9%	-1.6	1.3%	-4%	-1.1%
CC1CC1C(=O)OCC(=O)NCc1ccccc1Cl (stereo unspecified)	?	3.8	4%	2.5	-0.7%	15%	0.1%
O=C(Cc1ccccc1)N/N=C/c1ccc2cccc(O)c2n1	-24%[15.4 µM]	1.0	-24%	-4.1	·	-3%	3.7%
CC1CCN(C(=O)C2CCN(c3ncnc4c3nc3n4CCCCC3)CC2)CC1	32%	·	9%	5.6	-1.9%	-2%	3.7%
O=C1c2ccccc2C(=O)N1CCC(c1ccc(F)cc1)c1ccco1 (stereo unspecified)	0%	5.7	14µM*	-3.8	-0.3%	-3%	-0.1%
COCCCN(C(=O)Cc1ccc(Cl)c(Cl)c1)c1c(N)n(Cc2ccccc2)c(=O)[nH]c1=O	9%	1.8	8%	-5.2	-0.1%	11%	4.0%
CCOc1ccc(Oc2c(/C=N/NC(=O)COc3ccccc3OC)c(C)nn2-c2ccccc2)cc1	9%	7.1	-12%	0.9	-1.8%	5%	-0.8%
COc1ccccc1N(C)S(=O)(=O)c1ccc(C(=O)Nc2cccc(S(=O)(=O)N3CCOCC3)c2)cc1	-37%[inhibitor]	·	·	?	-1.5%	-24%	0.4%
O=C(COc1ccc(Br)cc1CO)Nc1ccc(S(=O)(=O)N2CCCC2)cc1	-24%	·	·	-0.5	-1.2%	-18%	4.4%
N#C/C(=C\c1ccc(OCc2ccccc2)cc1)C(=O)Nc1nc2c(s1)CCN(Cc1ccccc1)C2	-33%[inhibitor]	4.3	15%	-1.2	2.1%	-1%	11%
CC(C(=O)Nc1ccccn1)N1C(=O)C2C3C=CC(C3)C2C1=O (stereo unspecified)	-1%	4.4	-3%	-1.3	-3.6%	10%	3.9%
Cc1ccc(-c2cc(C(=O)Nc3cccc(S(=O)(=O)N(C)C)c3)c3ccccc3n2)o1	-13%[15.4 µM]	5.1	50µM*	6.0	·	9%	3.5%
O=C(NC1CCCc2ccccc21)c1ccc([N+](=O)[O-])cc1 (stereo unspecified)	-16%[15.4 µM]	5.0	20%	2.3	·	10%	0.3%
COc1ccc(NS(=O)(=O)c2ccc(N3CCOCC3)c(NC(=O)C(C)C)c2)cc1	-11%[15.4 µM]	3.2	15%	6.3	?	-8%	0.3%
CC(=O)NC1C(=O)N=C(SCC(=O)NC(C)c2ccccc2)NC1=O (stereo unspecified)	6%	0.0	6%	-2.3	0.5%	11%	?
O=C(NCc1ccccc1)NC(=O)c1ccc(Cl)cc1	5%	·	·	-7.1	-2.9%	9%	2.4%
O=C(CN1CCN(CC(=O)Nc2ccc(OCc3ccccc3)cc2)CC1)Nc1ccc(F)cc1	-17%	·	·	5.6	2.2%	-19%	-2.1%[38.3 µM]
CC(C)NC(=S)N1CCN(Cc2ccc3c(c2)OCO3)CC1	10%[15.4 µM]	-1.4	8%	-2.4	·	3%	-0.9%
O=C(CSc1ccccc1)Nc1nnc(C2CC2)s1	11%	6.4	1%	6.2	2.0%	10%	0.4%
COc1ccccc1-c1n[nH]c(=S)n1Cc1ccccc1	5%	-0.8	10%	-5.4	-7.0%	-3%	-1.1%
CCCOc1ccc(CCc2n[nH]c(=S)n2-c2ccccc2)cc1	0%[15.4 µM]	4.0	-10%	2.1	-0.4%	-12%	0.5%
Cc1cc(C)c2c(N)c(-c3nnc(SCc4ccc(Cl)cc4)n3C)sc2n1	16%[15.4 µM]	8.9	4%	6.6	1.4%	-12%	9.6%

The list goes on.
SMILES	gsp agonist	Menin MLL FP FL	Sfp PPTase inh	D2 ag	ClpP mod	gsp antagonist	PINK1 modulator
CCCCN(C)Cc1c(C)[nH]c2ccc(C)cc2c1=O	-7%	-0.5	18%	-2.5	-4.9%	-13%	·
CC(C)CN(CC(C)C)C(=O)CS(=O)(=O)Cc1ccccc1	-43%[inhibitor]	5.9	1%	0.3	-0.4%	-9%	·
CSc1ccc(C2NC(=O)c3ccccc3N2)cc1 (stereo unspecified)	?	·	·	-0.3	·	6%	9.4%
COc1ccc(C2C(C(=O)N3CCOCC3)=C(C)NC3=C2C(=O)CC(C)(C)C3)cc1O (stereo unspecified)	-8%	0.2	16%	-3.1	-14%	-1%	2.6%[38.3 µM]
COC(=O)C1CCN(C(=O)Cc2ccccc2OC)CC1	3%	9.3	8%	-0.2	·	1%	-2.5%
CN(C)S(=O)(=O)Oc1ccccc1C(=O)Nc1cccc(C(F)(F)F)c1	-17%	0.9	8%	-0.2	86%	-14%	1.0%
COc1ccc(-c2oc(NC(=O)CCl)c(C#N)c2-c2ccc(OC)cc2)cc1	-2%	-0.5	-2%	-3.5	-9.4%	-34%	-2.0%
COc1cc(NC(=S)N2CCOCC2)c(OC)cc1Cl	-1%	1.4	7%	7.3	-0.4%	-2%	2.6%
COc1ccc(/C=C/C(=O)OCC(=O)Nc2ccc(C)cc2)cc1S(=O)(=O)N1CCOCC1	7%	6.2	7%	-1.8	7.9µM*	-5%	0.5%
Cc1ccc(S(=O)(=O)N2CCOCC2)cc1NC(=O)COc1ccccc1Cc1ccccc1	-1%[15.4 µM]	·	·	1.9	0.9%	-18%	3.2%
CCOC(=O)CSc1nnc(CNC(=O)c2ccc(S(=O)(=O)N(C)C)cc2)n1C	4%	0.4	12%	1.7	-1.4%	-4%	0.4%
O=S1(=O)N=C2CCCCCN2C(c2ccc(Cl)cc2)N1 (stereo unspecified)	?	1.8	13%	5.6	1.4%	9%	-1.1%
CCCNC(=O)NC1C(NC(=O)NCCC)N(C)C(=O)N1C (stereo unspecified)	16%	13	12%	-1.3	-2.4%	4%	-0.4%
Cc1sc2nc(N3CCOCC3)[nH]c(=O)c2c1-c1ccccc1	18%[15.4 µM]	-0.9	5%	-2.1	-0.2%	7%	9.3%
Cc1sc2ncnc(N3CCC(C(=O)Oc4cccc(Cl)c4Cl)CC3)c2c1C	14%[15.4 µM]	-1.3	-8%	-4.6	·	-40%	-0.3%
CCc1cccc(CC)c1NC(=O)c1ccc(-n2cncn2)nc1	3%	-2.4	2%	-3.6	-2.9%	-9%	-1.1%
CCCCn1c(SCc2nc3ccccc3s2)nc2ccccc2c1=O	0%	0.4	-10%	-1.0	-5.9%	11%	-0.8%
CC1CCCN(C(=O)CN2C(=O)C(C)Oc3ccccc32)C1 (stereo unspecified)	-3%[15.4 µM]	-10	11%	-3.0	·	11%	-0.4%
CC(C)OCCCNC(=O)CCCC(=O)Nc1ccc(OCCc2ccccc2)cc1	2%	-2.1	11%	-2.7	1.6%	-1%	0.7%
CCCn1c(SCC(=O)c2c(N)n(C3CC3)c(=O)[nH]c2=O)nc2cc(S(N)(=O)=O)ccc21	34%	·	·	0.5	2.2%	10%	6.5%
CC(=O)Nc1ccc(S(=O)(=O)NCCSCc2c(Cl)cccc2Cl)cc1	-31%[inhibitor]	-1.7	1%	-2.4	-1.0%	?	1.5%[38.3 µM]
COc1ccc(NC(=S)N2CCC(c3nc4ccccc4[nH]3)CC2)c(OC)c1	19%	6.5	?	-1.2	-3.1%	-2%	-0.2%[38.3 µM]
COc1cc(NC(=O)c2cc(CC(C)C)on2)c(OC)cc1Cl	8%	-0.4	-13%	0.6	-25%	-6%	2.6%
COCCNC(=O)CCCn1c(=O)c2cc(OC)c(OC)cc2n(CC(=O)Nc2ccc(C)c(F)c2)c1=O	33%	1.0	3%	-3.6	4.2%	-5%	0.3%
Cc1c(C(=O)NCc2ccccc2C(F)(F)F)sc(=O)n1Cc1ccc2ccccc2c1	·	·	·	6.2	-0.6%	·	0.3%

Following part
SMILES	gsp agonist	Menin MLL FP FL	Sfp PPTase inh	D2 ag	ClpP mod	gsp antagonist	PINK1 modulator
COc1cc(/C=N/NC(=O)c2cc(C)n(-c3ccc(F)cc3)c2C)cc(OC)c1O	-24%	1.5	3%	8.5	·	4%	0.1%
CCOC(=O)C(=CNNc1ccccc1)C(=O)OCC	1%[15.4 µM]	-0.5	?	3.0	-3.0%	-8%	-3.0%
CC/C(=N\NC(=O)c1cc(C2CC2)[nH]n1)c1ccccc1	-35%[inhibitor]	-2.4	5%	3.7	-1.7%	4%	1.1%
CS(=O)c1ccccc1-c1nc(-c2cccc(Cl)c2)no1 (stereo unspecified)	12%[15.4 µM]	-1.4	-3%	-2.8	·	-22%	-1.3%
COc1cccc(N2CCN(Cc3nnnn3C3CCCCC3)CC2)c1	-20%	-0.5	2%	2.5	·	3%	1.2%
CC(=O)Nc1ccc(S(=O)(=O)NC(C)C(=O)OCCOc2ccc(F)cc2)cc1 (stereo unspecified)	-32%[inhibitor]	·	·	0.4	1.9%	-12%	-0.8%
CCC(C)Oc1cccc(OCCCCN2C(=O)NC(C)(C)C2=O)c1 (stereo unspecified)	18%	0.7	12%	1.3	-3.0%	-24%	-1.0%[38.3 µM]
Oc1ccc(C[C@@H]2CNCCN2CCc2cc(C(F)(F)F)cc(C(F)(F)F)c2)cc1	?	·	·	0.6	-4.5%	-5%	0.3%
Nc1ccc(C(=O)Nc2nccs2)cc1	1%[15.4 µM]	7.3	-10%	1.8	·	3%	0.8%
O=C(COc1coc(CN2CCN(c3ccccc3)CC2)cc1=O)Nc1ccccc1F	2%[15.4 µM]	·	·	12	76%	7%	1.4%
Cc1ccc(C)c(N2CCN(C(=O)CCC(=O)N3CCOc4ccc(Cl)cc43)CC2)c1	-17%	2.7	-9%	-4.6	-0.1%	-22%	-0.9%

Assay outcomes: PubChem, National Center for Advancing Translational Sciences (NCATS)
